T cruzi inh: blocks replication of Trypanosoma cruzi | T. cruzi beta-gal in NIH3T3, luminescence, 90 h | inhibition, % (concentration not given with the values) | hit rate 1.4% among 300,000;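 active = mean inhibition across valid replicates above about 55%, limit read from the data; inconclusive = mean below that limit but half or more replicates reach it; inactive = mean below it, under half of replicates reach it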;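 note: signal also drops with host cell toxicity which is not excluded here; 0% = plate median of DMSO wells and 100% = zero luminescence signal; higher percent means less beta-gal luminescence so fewer parasites; stock transfer was 50 nL into about 50 µL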
FGF22 binding: FGF22 (human) thermal shift binding; recombinant FGF22 thermal shift, SYPRO orange fluorescence; percent of sucrose octasulfate shift, DMSO zero; calls only at 9.99 µM; hit rate 1.5% among 340,000; AID 651658;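 active = melting point raised past a set limit in the mean and every replicate; inconclusive = no clear call; three in four hits are not shown here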
Target sequence (Q9HCT0 whole entry, looked up): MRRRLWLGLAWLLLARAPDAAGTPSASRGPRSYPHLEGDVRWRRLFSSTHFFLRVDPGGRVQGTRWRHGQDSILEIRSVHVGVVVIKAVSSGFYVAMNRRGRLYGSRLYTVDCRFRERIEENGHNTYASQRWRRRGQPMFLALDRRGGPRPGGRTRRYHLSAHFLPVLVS
UCH37 DUB inh: inhibitors of human deubiquitinating enzyme UCH37 | inhibition, % (concentration not given with the values) | AID 588478 | hit rate 0.33% among 330,000 | Q9Y5K5 | purified proteasome/UCH37, Ub-AMC cleavage fluorescence;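 active = mean of two replicates above 20%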;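 note: 0% = compound-free wells with enzyme and 100% = wells lacking proteasome; stock transfer was 100 nL into about 20 µL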
Target sequence (Q9Y5K5 whole entry, looked up): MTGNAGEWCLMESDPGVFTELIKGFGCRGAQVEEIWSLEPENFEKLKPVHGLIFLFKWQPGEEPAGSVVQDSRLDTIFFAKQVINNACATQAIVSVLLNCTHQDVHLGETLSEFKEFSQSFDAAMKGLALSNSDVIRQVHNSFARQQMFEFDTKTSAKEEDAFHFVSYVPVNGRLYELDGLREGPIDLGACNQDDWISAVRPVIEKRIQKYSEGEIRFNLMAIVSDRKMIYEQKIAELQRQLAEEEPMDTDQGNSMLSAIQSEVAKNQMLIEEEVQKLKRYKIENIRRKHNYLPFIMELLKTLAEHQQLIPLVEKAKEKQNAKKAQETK
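System: Proteasome-associated human UCH37 deubiquitinase; Input: 0.15 nM proteasome in added enzyme buffer; Also added: Ub-AMC substrate from 1 µM stock; Incubation: 30 min compound-proteasome preincubation then 25 min substrate reaction, room temperature; Detection: fluorescence, ex 355 nm, em 460 nm; Read-out: % inhibition of Ub-AMC cleavage fluorescence; Benchmarks: no-proteasome and no-compound wells.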
rRNA inh HTS: selective bacterial rRNA inhibition in E. coli; E. coli WT GFP vs humanized-ribosome RFP mutants, fluorescence, 24 h; active compounds read low; DMSO median 0, no signal -100; GFP signal change (wild-type ribosome), % (test concentration not listed); hit rate 1.6% among 350,000; AID 720706;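 active = significant combined selectivity score with lowered wild-type GFP, culture density cut under 30%, mutant RFP and density less affected; inactive = any of these conditions unmet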; note: one replicate is shown; some compounds called inactive have numbers as strong as hits
Ecoli growth: E. coli growth inhibition | AID 1053175 | OD600 absorbance (no concentration beside the values) | Escherichia coli growth, OD600, 23 h; active compounds read low | hit rate 0.21% among 330,000;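 active = OD600 absorbance below the run mean of sample wells minus 3.6 SD, in any replicate, cut at about 0.56 in these data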;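 note: stock transfer was 300 nL into about 60 µL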
AF4-AF9 inh: inhibitors of human MLL-AF4/AF9 interaction. P42568. AlphaScreen, biotin-AF4 peptide binding to FLAG-AF9. inhibition, % at 10 µM. hit rate 0.47% among 350,000. AID 651704;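 active = every replicate reaching a set inhibition limit, whatever the replicate mean, cut at about 25% in these data; inconclusive = mean inhibition reaches that limit but some replicates miss it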;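 note: 0% = plate neutral control median and 100% = total signal loss; the record names both 10 and 1 µM as test concentration; the first replicate is given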
Target sequence (P42568 whole entry, looked up): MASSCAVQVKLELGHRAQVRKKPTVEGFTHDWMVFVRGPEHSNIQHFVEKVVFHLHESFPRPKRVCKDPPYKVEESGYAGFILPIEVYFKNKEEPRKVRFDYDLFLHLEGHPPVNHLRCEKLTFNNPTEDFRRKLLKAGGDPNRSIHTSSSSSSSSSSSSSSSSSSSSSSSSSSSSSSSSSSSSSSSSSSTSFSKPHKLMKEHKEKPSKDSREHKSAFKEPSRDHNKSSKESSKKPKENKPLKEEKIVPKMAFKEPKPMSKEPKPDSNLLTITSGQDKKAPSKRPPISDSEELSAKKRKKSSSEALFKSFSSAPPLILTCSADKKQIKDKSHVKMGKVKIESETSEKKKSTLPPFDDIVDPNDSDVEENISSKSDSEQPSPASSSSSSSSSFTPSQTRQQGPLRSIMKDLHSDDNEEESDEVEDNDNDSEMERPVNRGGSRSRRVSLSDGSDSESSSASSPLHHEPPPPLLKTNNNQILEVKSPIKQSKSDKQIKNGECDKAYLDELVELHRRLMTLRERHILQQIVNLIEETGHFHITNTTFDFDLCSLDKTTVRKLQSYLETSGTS
Beta apoptosis: beta cell apoptosis inhibition. hit rate 0.8% among 300,000. INS-1E cytokine-induced death, ATP luminescence, 48 h; percent of positive-control rescue, neutral wells zero. protection from apoptosis, % (concentration not given with the values);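 active = all replicates at 75% or more, or half of them and the mean; inconclusive = half reach 75% but not the mean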;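 note: 0% = cytokine-treated negative control wells and 100% = positive control rescue; higher means more ATP so stronger rescue from cytokine killing; wells of about 40 µL received 100 nL stock; the first replicate is given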
A1 inh: inhibitors of the anti-apoptotic protein A1, read as caspase activation; MEF A1-2A-BIM cells, Caspase-Glo 3/7 luminescence, 3 h; percent of clofoctol response, vehicle zero; hit rate 0.066% among 330,000; caspase activation, % (concentration not given with the values);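 active = over half of replicate activation scores above 10%, or exactly half above 10 with the replicate mean above 10; inconclusive = replicate mean below 10 yet half the replicates above 10; inactive = over half of replicates below 10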;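 note: wells of about 30 µL received 50 nL stock; many hits fall short of the cut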
rRNA inh HTS OD600: further read-out of rRNA inh HTS, marked with its call; OD600 change, %; measured here: OD600 growth;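 optical density of the mix in the first replicate; 0 = DMSO median and -100 = no signal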
rRNA inh HTS RFP: also measured in rRNA inh HTS; calls as there; RFP signal change, %; measured here: RFP humanized mutant strains;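 first replicate; 0 = DMSO median and -100 = no signal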
An asterisk follows results filed as active; i = inactive; ? = inconclusive; . = not tested or not shown. Not all compounds are listed; count on the stated rates, not on these rows.

SMILES,T cruzi inh,FGF22 binding,UCH37 DUB inh,rRNA inh HTS,rRNA inh HTS OD600,rRNA inh HTS RFP,Ecoli growth,AF4-AF9 inh,Beta apoptosis,A1 inh
CC(NC(=O)CN(Cc1ccccc1)S(=O)(=O)c1ccccc1)c1cccnc1 (stereo not given),.,i,2.1,-3,-2,-1.4,0.6,-8.4,0,0.1
Cc1noc(NS(=O)(=O)c2ccc(NC(=O)Cc3ccc([N+](=O)[O-])cc3)cc2)c1C,0,i,1.9,4,2,-2.4,0.67,-0.7,-1,1.5
CC1C(C)C(O)(c2ccccc2)CCN1C (stereo not given),7,.,1.5,.,.,.,0.7,.,-3,0.5
CC(C)(C)c1ccccc1OCCCCN1CCCC1,?,.,-3.0,.,.,.,0.75,.,-8,0.2
CC1CCN(C(=O)CNC(=O)Cc2ccccc2)CC1,-1,i,3.6,.,.,.,0.71,0.7,4,1.5
CCN(CC)CCCNC(=O)c1cc(-c2ccc(Cl)cc2)on1,22,.,2.7,.,.,.,0.56,.,-1,0.9
Cn1cccc1CNC1CCCCC1,-8,i,3.4,9,5,-0.7,0.72,9.9,.,0.1
NC(=O)Cn1nc(C(F)(F)F)c2c1CCCC2,-13,i,4.7,17,4,-0.8,0.68,-2.0,-8,0.5
O=C(CSc1nc2ncc(Br)cc2[nH]1)c1ccc([N+](=O)[O-])cc1,-3,.,1.7,.,.,.,0.67,.,15,3.2
CCOC(=O)N1CCN(S(=O)(=O)c2cccc3nonc23)CC1,-4,.,3.1,.,.,.,0.69,.,.,0.2
CC(=O)Nc1ccc(-c2cn3cccnc3n2)cc1,-7,.,i,.,.,.,0.74,.,-5,0.1
O=C(N/N=C/c1ccc(N2CCOCC2)cc1)c1ccccc1NS(=O)(=O)c1cccs1,-13,i,.,-40*,-5.3*,-8.6*,.,-0.5,-3,0.7
COC(=O)c1sccc1OC(C)C(C)=O (stereo not given),-12,.,2.8,.,.,.,0.69,.,1,0.1
O=C(N/N=C/c1ccc(Br)s1)c1ccc([N+](=O)[O-])cc1,76*,.,.,14,7,-2.7,.,-1.1,12,-0.3
CC1CCCCN1C(=O)C12CCC(C)(C(=O)C1)C2(C)C (stereo not given),10,i,3.4,-17,-5,-4.8,0.68,3.3,-3,0.8
CN(C(=O)c1coc(=O)c2ccccc12)c1ccc(Br)cc1,-6,i,3.8,-11,-7,1.9,0.73,-2.6,0,-0.2
CC(=O)c1c(N)c(C#N)c(C)n1-c1ccc(Br)cc1,1,.,3.0,.,.,.,0.73,.,-5,0.1
O=c1oc2ccccc2cc1-c1cn2cccnc2n1,-22,.,-212,.,.,.,0.7,.,8,-5.5
O=C(c1ccc(F)cc1)N1CCC(N2CCCCCC2)CC1,-6,.,5.0,.,.,.,0.7,.,-5,0.2
Cc1c(NC(=S)NC(=O)c2cc3ccccc3o2)cccc1C(=O)O,-12,i,5.2,-20,-20,-5.1,0.67,-2.3,.,-0.7
COc1cccc(CN(C(=O)/C=C/c2ccc(Cl)cc2)C2CCS(=O)(=O)C2)c1 (stereo not given),-10,i,6.0,-36*,-21*,10*,0.7,6.7,3,-0.1
O=C1Nc2ccc(C(=O)O)c(O)c2C1=O,.,i,11,0,8,-3.8,0.72,0.0,.,.
CCCCn1c(N)c(N(CCOC)C(=O)c2ccc(S(=O)(=O)N3CCCCCC3)cc2)c(=O)[nH]c1=O,-8,i,-0.7,17,26,-1.9,0.69,-4.1,2,-0.3
CCC(CC)Nc1ccc(C(CC(N)=O)NC(=O)Cc2cccc3ccccc23)cc1[N+](=O)[O-] (stereo not given),-1,i,1.8,18,18,-11,0.76,-2.0,-6,-0.5

Part of the list above, with values under each structure.
Values run as follows: T cruzi inh, FGF22 binding, UCH37 DUB inh, rRNA inh HTS, rRNA inh HTS OD600, rRNA inh HTS RFP, Ecoli growth, AF4-AF9 inh, Beta apoptosis, A1 inh
O=c1oc2ccccc2cc1-c1cn2cccnc2n1
 : -22, ., -212, ., ., ., 0.7, ., 8, -5.5
O=C(c1ccc(F)cc1)N1CCC(N2CCCCCC2)CC1
 : -6, ., 5.0, ., ., ., 0.7, ., -5, 0.2
Cc1c(NC(=S)NC(=O)c2cc3ccccc3o2)cccc1C(=O)O
 : -12, i, 5.2, -20, -20, -5.1, 0.67, -2.3, ., -0.7

Additional results follow:
SMILES,T cruzi inh,FGF22 binding,UCH37 DUB inh,rRNA inh HTS,rRNA inh HTS OD600,rRNA inh HTS RFP,Ecoli growth,AF4-AF9 inh,Beta apoptosis,A1 inh
Cc1ccc(NC(=S)NCc2ccc(Cl)cc2)c(C)c1,-8,i,1.8,4,-3,-0.6,0.64,-14,6,0.3
O=C(CN1C(=O)COc2ccccc21)NCCCN1CCCC1,-16,i,-1.5,5,3,0.5,0.69,2.1,-1,0.5
Cc1cccc(OCC(=O)N2CCN(C(=O)Cc3ccccc3)CC2)c1,-10,.,3.0,.,.,.,0.72,.,-3,0.4
OCc1nnn(-c2ccccc2)c1CO,8,i,.,11,9,-2.0,.,-0.9,-6,0.1
Cc1nc(-c2cccc(NC(=O)c3ccc(Br)o3)c2)cs1,.,i,1.5,-32,-31,-3.0,0.64,0.6,-2,1.2
O=C(O)CN1C(c2ccccc2)=Nc2ccc(Br)cc2C1c1ccccc1 (stereo not given),14,i,6.8,14,7,-0.4,0.64,-1.0,-5,0.8
CC(=O)NCCc1nc2cc(NC(=O)c3ccc([N+](=O)[O-])cc3)ccc2n1C,-7,i,4.5,17,19,3.0,0.67,5.3,-2,1.7
Cc1ccc(CC(=O)NCCS(=O)c2ccc(Cl)cc2)cc1 (stereo not given),-2,.,1.8,.,.,.,0.67,.,-7,-0.3
CCc1[nH]c(C)c(C(C)=O)c1C,-5,.,1.3,.,.,.,0.69,.,1,0.2
O=C(Nc1cccc(C(F)(F)F)c1)C1CC(=O)N(CCc2ccccc2)C1 (stereo not given),.,i,2.5,-20,-32,2.8,0.67,-3.6,-5,-0.2
COc1ccc(CCn2nnnc2C(c2ccc(Cl)cc2)N2CCN(C)CC2)cc1OC (stereo not given),42,.,1.4,.,.,.,0.71,.,2,-1.2
CC(C)C(O)P(=O)(OCc1ccccc1)c1ccc(N(C)C)cc1 (stereo not given),-15,.,3.9,.,.,.,0.66,.,-8,0.4
C=CCOc1ccc(/C=C2\SC(=S)N(CCC(=O)O)C2=O)cc1,-2,i,7.6,-32*,-19*,-4.8*,0.72,.,-5,-5.3
CNC(=O)Cn1nc(-c2ccc(Cl)cc2)c2ccccc2c1=O,-4,.,1.8,.,.,.,0.64,.,-3,0.2
COc1ccccc1NC(=O)CCNS(=O)(=O)c1ccc2c(c1)CCN2C(C)=O,-10,i,-1.8,3,-15,-4.7,0.71,-0.1,-1,-1.6
CC(C)(C)C(=O)Nc1cc(S(=O)(=O)N2CCCCC2)ccc1N1CCCCC1,44,i,-0.7,-13,-14,0.1,0.71,0.7,-4,1.5
CS(=O)(=O)O/N=C1\CCCCC1c1ccc([N+](=O)[O-])cc1[N+](=O)[O-] (stereo not given),27,i,.,6,5,2.8,.,-9.4,1,0.3
O=C(NCc1ccco1)c1sc2ccccc2c1Cl,-8,.,2.8,.,.,.,0.7,.,1,?
COC(=O)C1=C(C)NC(C)=C(C(=O)OC)C1c1ccc(OC(=O)c2ccco2)cc1,-6,.,-7.9,.,.,.,0.73,.,5,1.0
Cc1ccc(S(=O)(=O)Nc2c(O)c3ccccc3oc2=O)cc1,0,i,4.4,0,13,-3.4,0.69,4.5,-1,0.1
Cc1cc(CC(C)C)n(-c2nc3ccccc3c(=O)n2OCC(=O)N(C)C)n1,.,.,2.0,.,.,.,0.75,.,11,0.5
COc1ccc(C(=O)C2CCCN(C(=O)Cn3ccc(C)n3)C2)cc1OC (stereo not given),7,i,0.5,15,13,1.6,0.67,-0.7,3,0.1
COC(=O)C1=C(C)N(CCCC(=O)O)C(=O)NC1c1ccccc1OS(=O)(=O)c1ccccc1[N+](=O)[O-] (stereo not given),-33,i,2.2,6,4,-2.9,0.68,3.8,-4,1.0
CSCCCNC(=S)N1CCN(c2ccc(C(C)=O)cc2)CC1,3,i,5.5,-7,-8,0.7,0.69,0.2,9,1.9
O=C(CN1C(=O)c2ccccc2C1=O)N(CCO)Cc1ccccc1,-20,i,4.0,9,7,-0.1,0.68,-4.9,-6,0.7
CC(C)Oc1ccc(CC(=O)NNC(=S)Nc2ccccc2)cc1,-2,i,2.4,-2,3,3.3,0.66,-12,-2,-0.9
COc1ccc2sc(NC(=O)NC(=O)c3c(Cl)cccc3Cl)nc2c1,-7,i,4.1,4,7,1.1,0.62,.,-5,2.4
Nc1nc2nc(-c3ccccc3)cc(=O)n2[nH]1,-8,.,-2.4,.,.,.,0.71,.,-3,-2.3
CCCc1cc(=O)[nH]c(SCC(=O)Nc2ccc(N3CCCCC3)cc2)n1,.,i,0.7,-6,6,-0.7,0.64,0.3,3,1.3
Cc1nc(N2CCN(C)CC2)c2cc(-c3ccccc3)sc2n1,53,i,-3.7,-11,11,-0.6,0.7,1.5,-11,-0.2
Cc1nc2ncnn2c(C)c1CCC(=O)N1CCc2ccccc2C1,0,.,3.0,.,.,.,0.74,.,-1,-0.6
O=C(CN(Cc1ccccc1)C(=O)CNS(=O)(=O)c1ccccc1)NCC1CCCO1 (stereo not given),-8,i,4.4,6,5,-0.1,0.71,4.8,-1,-0.6
Cn1c(N)c(C(=O)COC(=O)C2=NNC(=O)CC2)c(=O)n(C)c1=O,-1,i,-1.4,4,10,3.8,0.67,4.5,-7,0.1
Cc1[nH]c2ccccc2c1SCc1ccccc1,9,i,.,-24,-58,-20,.,-0.3,-5,1.5
COC(=O)NNC(=O)c1ccc(C(C)(C)C)cc1,-1,.,1.2,.,.,.,0.7,.,2,0.6
O=C(NCCSc1ccccn1)c1ccc(Cl)cc1,6,i,2.7,-14,-14,-5.0,0.7,-1.1,.,0.6
CC(C)c1ccc(N(C(=O)c2snc(C(N)=O)c2N)C(C(=O)NCC2CCCO2)c2ccc(N(C)C)cc2)cc1 (stereo not given),28,i,-3.8,4,6,-0.2,0.67,11,.,.
CC(=O)N1N=C(c2cccc(O)c2)CC1c1cccs1 (stereo not given),-17,i,4.1,3,-4,-0.6,0.66,-12,.,0.5
CCn1cc(C(=O)NCCCN2CC(C)CC(C)C2)c(=O)c2cc(S(=O)(=O)N(C)C)ccc21 (stereo not given),-4,i,3.5,8,3,1.6,0.7,-1.3,-6,-0.3
